UCH37 DUB inh: blocks the human deubiquitinase UCH37; Q9Y5K5; purified proteasome/UCH37, Ub-AMC cleavage fluorescence; hit rate 0.33% among 330,000; AID 588478; inhibition, % (no concentration beside the values);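 active = mean of two replicates above 20%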;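 also: 0% = compound-free wells with enzyme and 100% = wells lacking proteasome; stock transfer was 100 nL into about 20 µL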
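Material: human UCH37 enzyme supplied as purified proteasome complex / Amount: 0.15 nM proteasome as dispensed / Buffer or medium: pH 7.4 Tris-HCl (50 mM) with ovalbumin, ATP-MgCl2, DTT / Times: preincubation 30 min, reaction 25 min, room temperature / Technique: AMC fluorescence from Ub-AMC cleavage, excitation 355 nm, emission 460 nm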
LANA-H2A inh: blocks KSHV LANA binding to histone H2A/H2B; AID 2629; cell-free LANA-H2A/H2B peptide, fluorescence polarization; hit rate 0.6% among 320,000; inhibition, % (test concentration not listed); in the data active = inhibition mostly above about 10%, no sharp cut-off; inactive = mostly below about 6.7%;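 also: stock transfer was 7.5 nL into about 10 µL; 0% = median of vehicle wells and 100% = median of positive control wells; one replicate is shown; the record names a cut of 25% in any replicate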
Target sequence (Q9QR71 whole entry, looked up): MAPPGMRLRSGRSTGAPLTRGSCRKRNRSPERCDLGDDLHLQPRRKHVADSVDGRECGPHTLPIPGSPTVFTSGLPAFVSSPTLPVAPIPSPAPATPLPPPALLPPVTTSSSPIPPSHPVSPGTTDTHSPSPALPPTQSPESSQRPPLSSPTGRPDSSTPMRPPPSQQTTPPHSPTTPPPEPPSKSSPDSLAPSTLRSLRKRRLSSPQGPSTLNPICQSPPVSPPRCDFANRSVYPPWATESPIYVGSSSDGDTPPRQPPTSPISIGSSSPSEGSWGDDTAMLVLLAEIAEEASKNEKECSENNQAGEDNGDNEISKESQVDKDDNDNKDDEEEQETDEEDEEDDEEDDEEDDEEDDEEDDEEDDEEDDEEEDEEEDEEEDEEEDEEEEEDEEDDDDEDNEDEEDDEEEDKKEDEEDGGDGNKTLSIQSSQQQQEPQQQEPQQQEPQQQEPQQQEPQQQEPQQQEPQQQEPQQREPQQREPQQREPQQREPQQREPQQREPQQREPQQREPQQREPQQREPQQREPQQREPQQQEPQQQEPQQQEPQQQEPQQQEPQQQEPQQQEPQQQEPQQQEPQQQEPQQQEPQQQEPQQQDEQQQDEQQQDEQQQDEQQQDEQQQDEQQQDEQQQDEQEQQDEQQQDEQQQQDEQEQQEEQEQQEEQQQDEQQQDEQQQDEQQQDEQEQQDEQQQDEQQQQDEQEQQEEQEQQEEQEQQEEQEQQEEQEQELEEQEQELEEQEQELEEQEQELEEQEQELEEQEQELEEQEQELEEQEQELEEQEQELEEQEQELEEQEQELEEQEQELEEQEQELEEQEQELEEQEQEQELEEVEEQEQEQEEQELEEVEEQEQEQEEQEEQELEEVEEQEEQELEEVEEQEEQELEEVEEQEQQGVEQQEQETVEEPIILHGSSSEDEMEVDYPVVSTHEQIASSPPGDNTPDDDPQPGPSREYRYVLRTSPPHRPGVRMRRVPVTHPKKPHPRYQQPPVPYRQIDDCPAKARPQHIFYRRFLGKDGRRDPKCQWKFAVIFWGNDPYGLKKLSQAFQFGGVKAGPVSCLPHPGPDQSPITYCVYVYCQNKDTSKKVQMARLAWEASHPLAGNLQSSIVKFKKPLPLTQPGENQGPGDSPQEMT
Ecoli growth: blocks Escherichia coli growth. OD600 absorbance (concentration not given with the values). OD600, 23 h; stronger effect = lower value. hit rate 0.21% among 330,000;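 active = OD600 absorbance below the run mean of sample wells minus 3.6 SD, in any replicate, cut at about 0.56 in these data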;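 also: stock transfer was 300 nL into about 60 µL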
ALR inh: human ALR oxidase inhibition via reduced H2O2 | hit rate 3.8% among 290,000 | AID 485317 | purified ALR, DTT oxidation, H2O2 HRP-luminol luminescence | inhibition, % (concentration not given with the values) | P55789;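 active = mean and each replicate at 75% or more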;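 also: stock transfer was 7.5 nL into about 7.5 µL; 0% = neutral wells and 100% = wells with inactivated enzyme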
FGF22 binding: FGF22 (human) thermal shift binding | recombinant FGF22 thermal shift, SYPRO orange fluorescence; percent of sucrose octasulfate shift, DMSO zero | Q9HCT0 | hit rate 1.5% among 340,000 | calls only at 9.99 µM;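 active = melting point raised past a set limit in the mean and every replicate; three in four hits are not shown here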
Beta2AR agonist: agonists of human beta-2 adrenergic receptor inducing internalization; response, % (no concentration beside the values); AID 504454; P07550; Am2.2-beta2AR cells, FAP receptor internalization, flow cytometry; reference of the scale not given here; hit rate 0.43% among 340,000;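 active = response above a set limit, near 3 SD of response in nonfluorescent compounds, cut at about 42% in these data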;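 also: stock transfer was 100 nL into about 11 µL; a reference agonist was the positive control; negative values mostly stem from fluorescent compounds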
HNF4A DNA FP: change in binding of human HNF4 alpha to DNA | HNF4a-FITC DNA binding, fluorescence polarization, 1 h | activity change, % at 10 µM | hit rate 0.3% among 360,000 | AID 1224865; in the data active = activity change above about 30%, passing the limit was not always enough;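 also: controls were the assay level and a saturating level of protein; the project sought stronger binding though the title names inhibitors; some compounds called inactive have numbers as strong as hits; positive values seem to mean higher polarization but the record does not say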
* = called active by the depositor; i = inactive; . = not tested or not shown. The list is partial; the hit share may differ from the screen's.

Molecule	HNF4A DNA FP	Ecoli growth	UCH37 DUB inh	FGF22 binding	Beta2AR agonist	ALR inh	LANA-H2A inh
O=C(NC(=S)NNC(=O)c1ccco1)c1ccccc1	1.1	0.51*	7.1	i	5	88*	-4.4
CCOC(=O)C1(CCc2ccccc2)CCN(C2Cc3ccccc3C2)CC1	-0.1	0.63	0.8	i	11	-9	-1.0
O=C(C[n+]1ccccc1)Nc1ccccc1Br	0.0	0.67	2.1	.	-3	-1	-0.9
O=C(CSc1ccccc1)Nc1ccc2sccc2c1	-0.5	0.7	2.7	i	-3	-3	0.9
COCCN(CC(=O)Nc1cccc(C)c1C)C(=O)c1ccc(S(=O)(=O)N2CCOCC2)cc1	2.6	0.68	-0.3	i	-7	.	.
O=C(CSc1ccc([N+](=O)[O-])cc1)OCC(=O)N1CCCC1=O	0.8	0.67	7.2	i	2	-4	1.3
NC(N)=NS(=O)(=O)c1ccc(NC(=S)NC(=O)c2ccc(Br)cc2)cc1	3.9	.	.	i	-14	12	2.4
CCCCNC(=S)NNC(=O)c1csc(C(C)C)c1	1.7	0.73	1.6	.	-14	28	4.4
CCOc1ccc(NC(=O)c2cccnc2Cl)c([N+](=O)[O-])c1	1.0	0.67	6.8	.	7	.	.
C=CCN1C(=O)C(Cc2ccc(OC)cc2)S/C1=N\N=C\c1cccs1 (stereo unspecified)	-0.9	.	.	.	2	-12	-0.2
COc1ccc(CC(=O)OCC(=O)N2N=C(c3ccccc3)CC2c2ccc(OC)cc2)cc1 (stereo unspecified)	0.4	0.78	2.4	.	-9	-6	-0.8
Cc1cc(C)n2nc(SCc3nnc(SCc4ccccc4Cl)s3)nc2n1	-0.2	0.76	0.1	.	-19	-1	-2.5
CC(=O)c1ccc(OCc2cc(C(=O)NCCn3nc(C)cc3C)no2)cc1	2.9	0.7	1.8	i	-1	0	0.4
Cc1cc(OC(C)C(=O)NCCN2CCOCC2)c2c(C)c(C)c(=O)oc2c1 (stereo unspecified)	1.2	0.65	-88	i	-1	-2	-5.0
COc1ccc(OC)c(S(=O)(=O)n2cnc3cc(C)c(C)cc32)c1	1.3	0.71	0.8	.	-5	2	3.3

Carrying on:
Molecule	HNF4A DNA FP	Ecoli growth	UCH37 DUB inh	FGF22 binding	Beta2AR agonist	ALR inh	LANA-H2A inh
COc1ccc(CN2CCC(=O)N([C@H](CO)CC(C)C)CC2)cc1OC	-1.1	.	4.3	i	5	-2	-1.7
CC(=C/C(=O)O)/C=C/c1ccc([N+](=O)[O-])cc1	-1.4	0.68	11	i	52*	-30	0.3
O=C(CNC(=O)c1cccs1)OCc1ccc(Br)cc1	-0.6	0.66	5.3	i	-2	0	-0.1
Cc1ccc([N+](=O)[O-])c2cccnc12	-1.4	0.71	6.4	.	-10	-7	-8.4
Cn1nnc2c[n+](CC(=O)c3ccc4ccccc4c3)cc(Br)c21	6.7	0.68	10	i	3	4	-0.7
Cc1ccc(CNC(=O)CCNS(=O)(=O)c2cccc3nonc23)cc1	-3.8	0.69	4.1	i	3	-15	-1.1
COc1nc(Cl)cn(-c2ccc(C)cc2)c1=O	-0.9	0.65	0.4	.	8	-5	-2.9
Cc1cc(Cl)c(S(=O)(=O)N2CCCCCC2)cc1OCC(N)=O	1.7	0.68	1.3	.	2	-23	-9.2
O=C(CCC1CCCN(C(=O)CCC(F)(F)F)C1)NCc1ccc(F)c(F)c1 (stereo unspecified)	9.5	0.7	1.5	i	2	-7	-5.3
COc1ccc(CCNC(=O)CCn2c(=O)c3cccn3c3ccc(F)cc32)c(OC)c1OC	0.9	0.74	2.4	i	-14	-1	0.2
COc1cc(-c2nnc(CSc3nnc(Nc4ccc(C(C)C)cc4)s3)o2)cc(OC)c1OC	4.4	0.71	-13	i	1	2	7.2
CCOc1ncccc1C(=O)OCC(=O)c1c(N)n(C)c(=O)n(C)c1=O	4.8	0.73	0.9	.	7	5	-1.6
Cc1c(Cl)cc(C(C)C)c(O)c1CN1CCOCC1	-2.3	0.69	1.8	i	4	.	.
S=C(NCc1ccccc1)NCc1ccccc1	2.3	0.65	0.6	i	-6	-1	-0.7
CCC(C)c1ccc(NC(=O)C2CCCN(c3ncccn3)C2)cc1 (stereo unspecified)	-7.9	0.74	-2.8	.	-5	.	3.3

Other entries
Molecule	HNF4A DNA FP	Ecoli growth	UCH37 DUB inh	FGF22 binding	Beta2AR agonist	ALR inh	LANA-H2A inh
O=C(NCCc1ccccc1)C1CCN(S(=O)(=O)c2cccnc2)CC1	1.9	0.73	8.4	i	1	-12	0.5
Clc1ccc(-c2nc3ccccn3c2CN2CCOCC2)cc1	-0.5	0.61	1.0	.	-11	5	4.4
CC(=O)Nc1ccc(NC(C)=O)c(NC2OCC(O)C(O)C2O)c1 (stereo unspecified)	-0.6	0.66	3.2	i	-2	0	-0.6
COc1ccccc1NC(=O)CSc1nc2sc(C)c(C)c2c(=O)n1Cc1ccco1	-0.7	0.68	0.8	.	6	-8	5.6
N/C(=N\NC(=O)c1ccc(Cl)cc1)c1cnccn1	3.8	0.69	5.7	i	-2	-2	1.9
O=C(CCNS(=O)(=O)c1ccccc1)Nc1ccccc1	2.0	0.67	2.2	i	5	-4	-4.5
O=C(N=C1SC2CS(=O)(=O)CC2N1CCc1ccccc1)C1CCCCC1 (stereo unspecified)	-4.5	0.71	0.3	i	-1	2	-4.2
O=C(CSc1nnc2ccccn12)NCc1ccc2c(c1)OCO2	-0.5	0.71	0.8	i	-4	3	-7.1
CN(C(=O)c1ccco1)c1nc(-c2ccccc2)cs1	-2.7	.	.	i	-5	-2	3.2
O=C(Nc1nncs1)c1cc(S(=O)(=O)N2CCOCC2)ccc1Cl	-0.1	0.7	3.8	i	-5	.	5.0
COc1ccc([C@H]2CC(=O)C=C(c3cccc(Cl)c3)C2)cc1	4.8	.	4.1	i	-12	4	0.7
O=C(NCCN1CCOCC1)c1cccc(S(=O)(=O)N2CCCC2)c1	-2.5	0.68	-0.5	.	-8	-2	-1.6
O=C(CCc1nnc(-c2ccsc2)o1)NCc1ccccc1OC(F)(F)F	5.2	0.68	-1.6	i	-1	-35	1.5
COc1cccc(C(=O)OCCN2CCCCC2)c1	5.1	0.71	6.9	.	4	2	-3.7
COc1cccc(CNC(=O)C2CCC(=O)N(C3CC3)C2)c1OC (stereo unspecified)	2.0	0.68	6.7	i	-5	.	.

Continuation.
Molecule	HNF4A DNA FP	Ecoli growth	UCH37 DUB inh	FGF22 binding	Beta2AR agonist	ALR inh	LANA-H2A inh
Cn1c(=O)c(=O)n(C)c2cc(N3CCOCC3)c(NS(=O)(=O)c3ccc(Br)cc3)cc21	-2.1	0.66	3.7	i	0	7	-5.4
CN1C(=O)NC(NC(=O)c2cccs2)(C(F)(F)F)C1=O (stereo unspecified)	1.7	0.67	0.4	.	4	-5	1.8
CC1CN(/C=C/C=O)C(C)CC1OC(=O)c1ccccc1 (stereo unspecified)	-2.8	0.66	1.8	i	-1	-15	0.1
Cc1n[nH]c(C)c1CCCCOc1ccccc1F	-0.6	0.65	1.3	i	-3	.	-1.4
COCCNC(=O)CN(C(=O)CCC(=O)Nc1ccccn1)c1ccccc1OC	4.9	0.71	-0.3	i	-2	8	1.0
CSc1ccc2nnc(-c3cccc(F)c3)n2n1	1.8	0.71	-11	.	-3	.	.
COc1cccc(-n2c(O)c(C=NCc3ccccn3)c3ccccc3c2=O)c1	4.0	0.68	9.1	i	-5	-19	-6.7
CC(c1ccccc1)C1CC(=O)N(c2ccc(C(=O)O)cc2)C1=O (stereo unspecified)	0.4	0.72	0.9	i	-2	0	-2.2
CCN1CCc2c(sc(NC(=S)NC(=O)c3ccc(Cl)cc3)c2C(N)=O)C1	76	0.69	3.7	.	-97	7	-3.0
N#CCSc1nc2c(sc(=S)n2Cc2ccco2)c(=O)n1-c1ccc(F)cc1	58*	0.67	4.0	.	8	-3	-2.2
CC(C)C(=O)Nc1ccc2nn(-c3ccccc3)nc2c1	-5.9	0.71	-157	i	4	-1	-4.4
O=C1c2ccccc2C(=O)N1C1C(=O)N2CCSC12C(=O)OCc1ccccc1 (stereo unspecified)	3.6	.	.	i	0	.	.
Cc1ccc2cccnc2c1NC(=S)NC(=O)c1ccccc1	2.8	0.7	2.4	.	-51	-11	1.9
O=C1OC(=O)C2C3CCC(O3)C12 (stereo unspecified)	.	0.73	.	.	.	-8	2.3
CC(=O)Nc1cccc(NC(=O)CSc2n[nH]c(-c3ccccc3)n2)c1	5.6	0.65	0.6	i	-7	8	20*

(next part)
Molecule	HNF4A DNA FP	Ecoli growth	UCH37 DUB inh	FGF22 binding	Beta2AR agonist	ALR inh	LANA-H2A inh
COCCn1c(C(C)C)nc2ccccc21	-2.0	0.69	4.0	i	2	-16	-1.6
N#C/C(=C\c1cc(Br)ccc1F)C(=O)NC1CC1	0.7	0.67	2.3	i	4	5	3.6
Cc1cnn(C(=O)c2cc(-c3ccccc3)nc3ccccc23)c1	-0.6	0.68	-2.8	.	3	-1	-5.8
Cc1ccc(C(=O)NC(NCc2ccco2)C(Cl)(Cl)Cl)cc1 (stereo unspecified)	-1.1	0.68	2.9	.	2	-7	-4.7
O=C(Cc1ccc(Cl)c(Cl)c1)Nc1cccc(S(=O)(=O)N2CCOCC2)c1	-1.9	0.65	2.3	.	-4	0	-3.5
O=C(N/N=C/c1ccc(-c2ccc(S(=O)(=O)Nc3ncccn3)cc2)o1)c1cc2ccccc2cc1O	-7.6	.	.	.	-1	1	5.2
CC1CCCC(C)N1C(=O)CSc1nc2ccccc2c(=O)[nH]1 (stereo unspecified)	3.1	0.64	1.8	i	5	3	-0.8
Cc1ccc(OCC(=O)OCC(=O)NC2CC2)cc1C	0.1	0.7	0.0	i	-2	0	-1.8
C=CCn1c(O)c(N=NC(=O)CNC(=O)c2ccncc2)c2ccccc21	0.7	0.66	9.0	i	-3	5	-0.7
COc1ccccc1N1CCN(C(=O)c2ccc(Cl)c(S(=O)(=O)NCc3ccco3)c2)CC1	-2.3	0.72	0.4	.	-10	10	-1.6
O=C(CSc1nnc(NC(=O)C2CC2)s1)Nc1cccc(F)c1	5.8	0.65	0.9	i	-2	-3	10
O=c1[nH]c(N2CCN(c3ccccc3)CC2)nc2c1CCCC2	-1.3	0.69	0.6	.	-1	-4	-0.5
Nc1c2c(nc3ccc(Br)cc13)N(Cc1ccccc1)CC2	5.0	0.72	0.7	i	4	-6	-9.7

Ordered by number of heavy atoms (rising): some entries from above
Molecule	HNF4A DNA FP	Ecoli growth	UCH37 DUB inh	FGF22 binding	Beta2AR agonist	ALR inh	LANA-H2A inh
Cc1n[nH]c(C)c1CCCCOc1ccccc1F	-0.6	0.65	1.3	i	-3	.	-1.4
CCOc1ccc(NC(=O)c2cccnc2Cl)c([N+](=O)[O-])c1	1.0	0.67	6.8	.	7	.	.
O=C1c2ccccc2C(=O)N1C1C(=O)N2CCSC12C(=O)OCc1ccccc1 (stereo unspecified)	3.6	.	.	i	0	.	.

Assay outcomes deposited in PubChem BioAssay by several laboratories.
